Screening data as filed in PubChem BioAssay.
VACV E9 pol inh – vaccinia E9 polymerase processive synthesis inhibition; in vitro processive DNA synthesis, absorbance read-out; stronger effect = lower value; some inactives read as strong as hits; AID 493162; normalized absorbance, % (test concentration not listed); hit rate 0.94% among 46,000;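 active = replicate mean up to 90% and picked by the depositor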;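 also: 100% = median of the test wells of a plate; 100 nL library stock went into each well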
The depositor's hits bear a star. These rows are one share of the data; rates above refer to the full screens.

SMILES	VACV E9 pol inh
O=C(O)c1cccn2c(=O)c3c4c(sc3nc12)CCCC4	101
O=C(Nc1ccc(-c2ccccc2)oc1=O)c1ccccc1	105
Cc1ccc(C(=O)/C=C2\N/C(=N\S(=O)(=O)c3ccc(N)cc3)NC2=O)cc1	100
O=C(CCNc1ccc(Cc2ccncc2)cc1)c1ccc(Cl)cc1	100
OCCOc1c(Cl)cc(Cl)c2cccnc12	98
O=C(COC(=O)Cc1ccccc1F)Nc1cccc(Br)c1	96
CC12C=CC3(CN(Cc4ccccc4)C(=O)C3C1C(=O)NCc1ccco1)O2 (stereo unspecified)	102
CCN1CNC(=S)N(c2ccccc2)C1	100
CC(=O)N1Cc2ccccc2C(C)CC12CCCCC2 (stereo unspecified)	84
CCOC(=O)CC1=NN(c2ccccc2)C(=O)/C1=C\c1cc(OC)c(OC)cc1OC	100
CC1(C)CC(=O)NC(=Nc2ccc(Br)cc2)C(=O)C1	100
COC(=O)C(C)C[N+](C)(C)C (stereo unspecified)	100
C=CCNc1sc2c(N)nc(N)nc2c1C#N	94
CCn1c(C(=O)N2CCCC(C(=O)N3CCN(c4cccc(C)c4C)CC3)C2)cc2sccc21 (stereo unspecified)	103
COC(=O)c1ccccc1NC(=O)c1ccc(-c2ccccc2Cl)o1	110
CS/C(=C(/C#N)S(=O)(=O)C(C)C)N1CCCC1	112
Cc1ccccc1C(=O)Nc1cccc(NC(=O)c2ccc(-c3ccc(Cl)cc3Cl)o2)c1	99
O=c1ccn(-c2ccc(-c3ccn[nH]3)cc2)cc1	91
CCOC(=O)c1c(C)c(C(=O)NCc2ccc(OC)cc2)c(C)n1C	104
O=C(/C=C/c1ccccc1)Nc1nc2ccc(S(=O)(=O)N3CCCC3)cc2s1	101
CC(=O)N[C@H](CS)C(=O)O	101
CNC(=O)c1ccccc1-[s+]1c2ccccc2c(=O)n1C (stereo unspecified)	94
Nc1cc(N)nc(SCCC(=O)O)n1	100
O=C(CSc1nc2ccccc2s1)OCC(=O)c1ccc(F)cc1	94
O=C(c1ccccc1)N1CCN(C2=NS(=O)(=O)c3ccccc32)CC1	100
O=C1C2CC3CC1CC(C(=O)O)(C3)C2	62*
c1ccc(-c2nnc(-c3ccco3)o2)cc1	87
O=C(CN1C(=O)c2ccccc2C1=O)N1CCN(Cc2ccccc2)CC1	102
Cc1ccc(NC(=O)CC2(C(F)(F)F)OCCO2)cc1Cl	109
[O-][n+]1onc2c1CCc1c-2nc(-c2ccco2)n1O	100
Cn1c(=NC(=O)c2cccc(C(F)(F)F)c2)sc2c3ccccc3ccc21	101
CCCc1nncn1NC(=O)OCC	99
O=c1c(Cc2ccccc2OCc2ccccc2)coc2ccccc12	101
c1ccc(OCCSc2nc3ccccc3n2CCOc2ccccc2)cc1	100
CCN1CCN(C(c2cccs2)C(C)NC(=O)Cc2ccc(OC)c(OC)c2)CC1 (stereo unspecified)	100
O=C(O)CC(O)(c1ccccc1)C(F)(F)F (stereo unspecified)	107
O=C(Nc1ccc(-c2nc3ccccc3s2)cc1)c1cccc(F)c1	100
Cc1cc(C)c(Cn2c(=O)n(NC(=O)c3ccccc3)c(=O)c3sccc32)c(C)c1	100
C=CCn1c(=NC(=O)/C=C/c2ccccc2)sc2cc(S(C)(=O)=O)ccc21	106
Cc1cc(C)n2c(Nc3c(C)cccc3C)c(-c3ccc(Cl)s3)nc2n1	94
O=C(OCC(=O)c1cccc2ccccc12)c1cccs1	106
CC(=O)Oc1ccc(-c2ccccc2)cc1	100
CCOc1ccccc1NC(=O)COc1ccccc1F	104
Nc1sc2ccccc2[n+]1CC(=O)Nc1ccc(Cl)cc1	100
Cc1c2cnn(CC(=O)NC(C)c3ccc4c(c3)OCCO4)c(=O)c2c(C)n1Cc1ccc(F)cc1 (stereo unspecified)	90
O=C1COc2cc(S(=O)(=O)NCc3ccccc3)ccc2N1	97
O=C(NC(Cc1nc2ccccc2[nH]1)c1ccccc1)c1ccccc1 (stereo unspecified)	104
CN(Cc1ccccc1)C(=O)CCc1nc2cccnc2n1Cc1ccccc1	90
O=C(NCc1ccc(Cl)cc1)c1cc2c(s1)CCC2	101
O=C1/C(=C\c2ccccn2)Cc2ccccc21	104
CC1(C)C(=O)OC(c2cccs2)C(C)(C)C1=O (stereo unspecified)	98
O=C(c1ccccc1)N1CCN(CC#CC2(O)CCCCC2)CC1	89
O=C(/C=C/c1cccs1)N(C1CC1)C1(C(=O)Nc2ccccc2)CCCC1	97
C1CCN(SN2CCCCC2)CC1	100
CC(C)(C)C(=O)Nc1nnc(SCC(=O)Nc2cc(C(F)(F)F)ccc2Cl)s1	99
C=CCNC(=O)COc1ccc(Cl)cc1Cl	100
CC(C)Cn1c(CO)nc2ccccc21	102
CC(=O)Nc1ccc(-n2c(C)ccc2C)c(C(=O)O)c1	49*
O=C1/C(=C/c2cccs2)SC(=S)N1c1ccc(Cl)c(Cl)c1	103
O=C(Cc1cccs1)Nc1cccc(-c2nnc(-c3ccco3)o2)c1	98

Remaining list, next part.
SMILES	VACV E9 pol inh
CCOC(=O)N1CCN(C(=O)CCCN2C(=O)/C(=C\c3cccs3)SC2=S)CC1	100
C=C(C)Cn1c(CNC(=O)C(C)(C)C)nc2ccccc21	101
Cc1ccc(C(=O)c2cccs2)s1	99
CCOC(=O)c1nn(-c2ccccc2)c(=N)c(C#N)c1C	87
COc1ccc(NCc2nc(-c3ccccc3)no2)cc1OC	106
COCN(C#N)c1nc(N(C)C)nc(N(C)C)n1	100
FC(F)(F)c1n[nH]c(=S)n1/N=C/c1ccc(Cl)cc1	100
O=C(O)CN1C(=O)CC(Cc2ccc(Cl)cc2)C1=O (stereo unspecified)	100
CC(=O)N1CCC(C(=O)Nc2cc(C)cc(C)c2)CC1	98
Nc1[nH]ncc1-c1ccc(-n2cccc2)cc1	84
CCC1C(c2ccccc2)NC(c2ccccc2)CC1(O)c1ccc(F)cc1 (stereo unspecified)	100
O=C(/C=C/c1ccccc1)/C=C/c1ccccc1	100
COc1ccc(-n2nc(C(F)(F)F)cc2-c2cccs2)cc1	110
COCC(C)NC(=O)c1ccc(NC(C)=O)cc1 (stereo unspecified)	99
CC(C)Cc1ccc(C(C)C(=O)NCCc2c[nH]c3ccccc23)cc1 (stereo unspecified)	101

2 entries from above, as labelled records.
COCN(C#N)c1nc(N(C)C)nc(N(C)C)n1
  VACV E9 pol inh: 100

FC(F)(F)c1n[nH]c(=S)n1/N=C/c1ccc(Cl)cc1
  VACV E9 pol inh: 100

The results go on.
SMILES	VACV E9 pol inh
CC(CCc1ccccc1)NC(=O)CSc1cc(=O)n(C)c2ccccc12 (stereo unspecified)	95
COc1ccc(C2SCCN2S(=O)(=O)c2ccccc2)cc1 (stereo unspecified)	101
Cc1c(-n2c(=S)[nH]c3ccccc3c2=O)c(=O)n(-c2ccccc2)n1C	99
N#Cc1nn(-c2ccccc2)c(=O)n(Cc2ccc(Cl)cc2Cl)c1=O	102
O=S(=O)(c1ccc(-c2csc(=Nc3cccc(C(F)(F)F)c3)n2CCO)cc1)N1CCCC1	100
CC1(C)OC(=O)N(c2ccccc2)C12C=Cc1cc3ccccc3cc1O2 (stereo unspecified)	103
Cc1ccc(S(=O)(=O)c2cc3ccccc3oc2=O)cc1	105
O=C(Nc1nc2ccccc2s1)c1ccccc1	101
Cc1onc(C(N)=O)c1C(=O)Nc1cccc(C(F)(F)F)c1	110
CC(C)CC1C(C#N)=C(N)OC2=C1C(=O)CC(c1ccccc1)C2 (stereo unspecified)	92
COC(=O)c1cc(Cl)c(NC(=S)NC(=O)C(C)(C)C)cc1OC	96
COc1ccc(C(=O)N2CCN(CCn3c(C)ccc3C)CC2)cc1	101
CCCOc1ccc(/C=C/C(=O)Nc2ccc(S(=O)(=O)Nc3ncccn3)cc2)cc1	100
Cc1ccc(-c2csc3nc[nH]c(=O)c23)cc1C	104
c1csc(-c2nnc(CSc3cccc4cccnc34)o2)c1	100

Arranged by molecular weight (ascending): 17 of the compounds above
SMILES	VACV E9 pol inh
COCC(C)NC(=O)c1ccc(NC(C)=O)cc1 (stereo unspecified)	99
O=C(Nc1nc2ccccc2s1)c1ccccc1	101
Cc1ccc(-c2csc3nc[nH]c(=O)c23)cc1C	104
Cc1ccc(S(=O)(=O)c2cc3ccccc3oc2=O)cc1	105
Cc1onc(C(N)=O)c1C(=O)Nc1cccc(C(F)(F)F)c1	110
CC(C)CC1C(C#N)=C(N)OC2=C1C(=O)CC(c1ccccc1)C2 (stereo unspecified)	92
COc1ccc(-n2nc(C(F)(F)F)cc2-c2cccs2)cc1	110
COc1ccc(C2SCCN2S(=O)(=O)c2ccccc2)cc1 (stereo unspecified)	101
COc1ccc(C(=O)N2CCN(CCn3c(C)ccc3C)CC2)cc1	101
CC(C)Cc1ccc(C(C)C(=O)NCCc2c[nH]c3ccccc23)cc1 (stereo unspecified)	101
CC1(C)OC(=O)N(c2ccccc2)C12C=Cc1cc3ccccc3cc1O2 (stereo unspecified)	103
COC(=O)c1cc(Cl)c(NC(=S)NC(=O)C(C)(C)C)cc1OC	96
Cc1c(-n2c(=S)[nH]c3ccccc3c2=O)c(=O)n(-c2ccccc2)n1C	99
N#Cc1nn(-c2ccccc2)c(=O)n(Cc2ccc(Cl)cc2Cl)c1=O	102
CCC1C(c2ccccc2)NC(c2ccccc2)CC1(O)c1ccc(F)cc1 (stereo unspecified)	100
CC(CCc1ccccc1)NC(=O)CSc1cc(=O)n(C)c2ccccc12 (stereo unspecified)	95
O=S(=O)(c1ccc(-c2csc(=Nc3cccc(C(F)(F)F)c3)n2CCO)cc1)N1CCCC1	100

New compounds follow
SMILES	VACV E9 pol inh
CC1CCCC(NC(=O)COC(=O)c2ccc(Br)o2)C1C (stereo unspecified)	103
CN(C(=O)CSc1c2c(nc3cc(Cl)ccc13)CCCC2)c1ccc(F)cc1	95
CCSC1=C(C#N)C(c2cccs2)C(C(=O)Nc2ccccc2)=C(C)N1 (stereo unspecified)	100
O=C(Nc1cccc(C(F)(F)F)c1)c1cccc(F)c1	104
C=CCNC(=O)CSc1nccc(-c2sc3sc(Br)c(C)c3c2C)n1	102
Cc1ccc(-c2nc(Nc3ccccc3)n[nH]2)cc1	106
C[C@H](CS)C(=O)N1CCC[C@H]1C(=O)O	103
O=C(NC1CCCCC1)/C(=C/C=C\c1ccccc1)NC(=O)c1ccccc1	97
Cc1onc(-c2c(Cl)cccc2Cl)c1C(=O)OC1=CC(=O)CC(C)(C)C1	102
CN(C)[C@@H]1C(=O)C(C(N)=O)=C(O)[C@@]2(O)C(=O)C3=C(O)c4c(O)ccc(Cl)c4[C@@H](O)[C@H]3C[C@@H]12	100
Cc1c(Cl)cccc1-n1c(SCc2cc(=O)n3ccccc3n2)nc2n[nH]c(C)c2c1=N	108
O=C(NCC1CCCO1)/C(=C/c1ccccc1)NC(=O)c1ccccc1 (stereo unspecified)	100
Cc1nccn1-c1c2c(c(C#N)c3nc4ccccc4n13)CCCC2	100
O=C(NCCCN1CCOCC1)c1cccnc1SCc1ccccc1Cl	100
O=C(Nc1cccc(F)c1)c1cc(S(=O)(=O)NCCc2ccccc2)ccc1F	100
CC(Oc1ccccc1F)C(=O)N1CCN(C(c2ccccc2)c2ccccc2)CC1 (stereo unspecified)	88
COc1ccc(C(N)CCO)cc1OC (stereo unspecified)	95
COC(=O)c1ccc(Cn2cc(Br)cn2)cc1	96
N#C/C(=C\Nc1ccccc1F)c1nc(-c2cc3ccccc3oc2=O)cs1	100
N=C(N)SCCS(=O)(=O)c1ccccc1	99
Cc1[nH]c2ccccc2c1CCN	100
CCOC(=O)c1ccc2nc(C(F)(F)F)cc(N3CCN(c4ccccc4)CC3)c2c1	96
Cc1ccc2c(c1)N(C(=O)NCc1ccccc1)CC(C)O2 (stereo unspecified)	100
Cc1ccc(-c2nsc(SCC(=O)NCc3ccc4c(c3)OCO4)n2)cc1	87
CCc1ccc(/C=c2\sc3nc(C4COc5ccccc5O4)nn3c2=O)cc1 (stereo unspecified)	99
Cn1c(=O)c2c(ncn2CC(=O)NCc2ccco2)n(C)c1=O	100
CCC(=O)Nc1nnc(SCc2cccc(F)c2)s1	100
Cc1cc(C2(c3cc(C)c(N)c(C)c3)CCCCC2)cc(C)c1N	99
O=C(CSc1oc(-c2ccccc2)nc1S(=O)(=O)c1ccccc1)Nc1ccc(F)cc1	103
Cc1cc(C)nc(SC2CCCCC2NS(=O)(=O)c2ccccc2)n1 (stereo unspecified)	101
C(=C\c1ccccc1)/CN1CCNCC1	100
CC1=C(/C=C/C(C)=C\C=C\C(C)=C\C(=O)O)C(C)(C)CCC1	100
Cc1cccc(N=C2NC(=O)/C(=C/c3ccc(F)cc3)S2)c1C	100
CC(=O)Oc1cc2c(cc1Br)C1CCC3(C)C(OC(C)=O)CCC3C1CC2 (stereo unspecified)	100
CCOc1ccc2c3c(c(=O)oc2c1OCC)CCC3	99
O=C(O)c1cccc(NCc2ccncc2)c1	90
Cc1scc(CN2CCOCC2)c1C	98
CSc1nc(-c2ccco2)nn1C(=O)c1ccccc1	98
O=S(=O)(c1cccc2nsnc12)N1CCCCC1	104
C=CCn1c2ccccc2c2nnc(SCc3ccccc3C)nc21	97
CC(=O)NCc1ccc2[nH]c(C)cc2c1	101
CC(=O)Oc1ccc2c(c1)OC1(c3ccc(OC(C)=O)cc3OC(C)=O)CCCC1C21CCCC1 (stereo unspecified)	109
COC(=O)NC(Nc1ccccc1C(F)(F)F)C(=O)c1ccccc1 (stereo unspecified)	99
CCC(CO)NS(=O)(=O)c1cc(-c2nnc3c4ccccc4c(C)nn23)ccc1OC (stereo unspecified)	80
CCCC(=O)Nc1ccc2c(c1)c1ccccc1n2CC	101
O=C(CSc1ncnc2ccccc12)Nc1ccc(F)c(F)c1F	92
Cc1ccccc1-c1oncc1-c1nnnn1-c1ccccc1	96
Cc1ccc(C(=O)Nc2nonc2NC(=O)c2ccc(C)cc2)cc1	111
COc1ccc(-c2nnc(C3CCN(S(C)(=O)=O)CC3)o2)cc1	106
O=C(C[n+]1ccccc1)Nc1ccccc1C(=O)O	100
Cc1ccccc1NC(=O)COC(=O)c1ccccc1C(=O)c1ccccc1	104
O=C(CC(c1ccccc1)c1ccccc1)NCC1COc2ccccc2O1 (stereo unspecified)	98
FC(F)(F)c1cc(-c2ccccc2)n2c(n1)nc1ccccc12	100
O=C(NC1C2CC3CC(C2)CC1C3)c1cccc(Cl)c1 (stereo unspecified)	97
COC(=O)Nc1cccc(Cl)c1	99
CC(=O)Nc1ccc(S(=O)(=O)NCc2ccc(C(=O)NCCN3CCCCCC3)cc2)cc1	90
